VDR inh – vitamin D3 receptor (human) inhibition; Potency, µM, for inactives: max response, negative = inhibition, most hits filed as inhibitors; 0.93% of 400,000 active; P11473; AID 504847; VDR-SRC2-3 peptide fluorescence polarization, 2 h; active = well fitted inhibition curve with a large enough effect; inconclusive = small, poorly fitted or top-dose-only effect, or another doubt; inactive = no such curve, though single readings can be large or run the other way; note: series mostly up to about 120 µM
Target sequence (P11473 whole entry, looked up): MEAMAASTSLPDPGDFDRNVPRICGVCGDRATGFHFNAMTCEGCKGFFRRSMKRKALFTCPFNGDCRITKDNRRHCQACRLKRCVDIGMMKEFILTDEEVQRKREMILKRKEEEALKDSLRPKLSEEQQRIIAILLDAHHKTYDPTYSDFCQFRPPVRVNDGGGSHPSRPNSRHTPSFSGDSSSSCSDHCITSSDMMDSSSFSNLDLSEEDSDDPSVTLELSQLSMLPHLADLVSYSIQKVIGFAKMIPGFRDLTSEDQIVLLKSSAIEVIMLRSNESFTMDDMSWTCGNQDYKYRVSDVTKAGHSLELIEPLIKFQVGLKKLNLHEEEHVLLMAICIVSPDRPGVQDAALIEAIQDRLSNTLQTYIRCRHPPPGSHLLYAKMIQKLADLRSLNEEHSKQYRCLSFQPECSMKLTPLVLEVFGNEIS
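Fluorescence polarization assay of small-molecule disruption of VDR binding to coregulator peptide SRC2-3. Compounds and controls pin-transferred, then read after 2 h incubation at ambient room temperature.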
* hit, by the source's call; ? = inconclusive; & = joins results of further samples; [ ] = remark or other dose. % is set by controls: 0 for no effect and ±100 for the full control effect; potency is the fitted concentration of half-maximal effect.

VDR inh	Structure
-10.5%	O=C(N=C1SC2CS(=O)(=O)CC2N1CCc1ccccc1)C1CCCCC1 (stereo not drawn)
5.2%	CCC(C)NC(=O)C(=O)Nc1c2c(nn1-c1ccccc1)CS(=O)(=O)C2 (stereo not drawn)
0.7%	Cc1ccc(Sc2ncccc2NC(=O)c2ccccc2Cl)cc1
-2.6%	c1ccc(CC2CCN(c3nc4ccccc4n4nnnc34)CC2)cc1
2.5%	Cn1c(N)c(C(=O)COC(=O)Cc2c(F)cccc2Cl)c(=O)n(C)c1=O
-23.0%	O=C(/C=C/c1ccco1)N1CCCC(c2ccccc2)C1 (stereo not drawn)
-3.5%	CCCC(=O)Nc1cc(-c2nn(C)c(=O)c3ccccc23)ccc1N1CCCCC1
15.9%	CCOc1ccc(OCC)c(NC(=O)CCNS(=O)(=O)c2cc(Br)cnc2N)c1
8.5%	CC(=O)Nc1ccc(NC(=O)C2CCN(C(=O)NC3CCCCC3)CC2)cc1
-2.5%	COCCCNC(=S)N/N=C/c1ccc2ccccc2c1
-10.1%	CC(Sc1nnc(-c2ccccc2F)n1C1CC1)C(=O)N1CCCC1 (stereo not drawn)
6.6%	COc1ccc(-n2cc(C(=O)c3ccccc3O)cn2)cc1
4.8%	COc1ccccc1C(=O)NN(C)C1=NS(=O)(=O)c2ccccc21
4.0%	CCN(CC)CCCN(C(=O)c1ccc(Br)cc1)c1nc(-c2ccc(OC)cc2)cs1
0.8%	CC(=O)NCCc1nc2ccccc2n1CCOc1ccc(C)cc1

Seven of the entries above in order of their number in VDR inh, descending.
VDR inh	Structure
8.5%	CC(=O)Nc1ccc(NC(=O)C2CCN(C(=O)NC3CCCCC3)CC2)cc1
4.8%	COc1ccccc1C(=O)NN(C)C1=NS(=O)(=O)c2ccccc21
2.5%	Cn1c(N)c(C(=O)COC(=O)Cc2c(F)cccc2Cl)c(=O)n(C)c1=O
-2.5%	COCCCNC(=S)N/N=C/c1ccc2ccccc2c1
-2.6%	c1ccc(CC2CCN(c3nc4ccccc4n4nnnc34)CC2)cc1
-10.1%	CC(Sc1nnc(-c2ccccc2F)n1C1CC1)C(=O)N1CCCC1 (stereo not drawn)
-23.0%	O=C(/C=C/c1ccco1)N1CCCC(c2ccccc2)C1 (stereo not drawn)

Continuation.
VDR inh	Structure
10.8%	Cc1cc(C)nc(NC2=NCC(=O)N2c2cc(Cl)cc(Cl)c2)n1
5.6%	CNC(=O)c1cc(Nc2nnc(C)c3ccccc23)ccc1OC
-18.5%	COc1nc(Nc2cccc(C)c2)nc(N2CCCCC2)n1
-15.6%	CCOc1ccc(CCNC(=O)CN2C(=O)CCSc3ccccc32)cc1OCC
-11.3%	CN1CCc2c(sc3c2c(=O)n(-c2ccccc2)c2nncn32)C1
-15.0%	COC(=O)c1ccc(NC(=O)c2cc[n+](Cc3ccccc3)cc2)cc1
-11.4%	O=C(Nc1ccc([N+](=O)[O-])cc1)N1CCCCC1
-6.5%	COC(C[C@H](O)[C@H](C)[C@H](O)COCc1ccccc1)OC
1.7%	COC(=O)c1ccc(/C=N/N2CCN(Cc3ccc(Cl)cc3)CC2)cc1
18.5%	Cc1ccc(S(=O)(=O)N2CCOCC2)cc1NC(=O)CSc1nnc(C2CC2)n1C1CC1
5.2%	COc1ccccc1CNC(=O)c1cnc2sc(N3CCOCC3)nn2c1=O
13.0%	O=C(NS(=O)(=O)c1ccc(Cl)cc1)c1ccccc1
-14.1%	COc1ccc(CN2C(=O)NC3(CCCc4ccccc43)C2=O)cc1F (stereo not drawn)
6.8%	COC(=O)/C(C#N)=C/c1c(N2CCN(c3cccc(Cl)c3)CC2)nc2c(C)cccn2c1=O
?	CNC(=O)c1c(NC(=O)c2ccc(S(=O)(=O)N(C)c3ccccc3)cc2)sc2c1CCN(C(C)C)C2

The list goes on:
VDR inh	Structure
-19.1%	CCOC(=O)CCNC(=O)N1CCCC(N(C)CCc2ccccc2)C1 (stereo not drawn)
6.9%	CCn1cc(Br)c(C(=O)NC(C)c2ccccc2)n1 (stereo not drawn)
0.9%	COc1cc(/C=N/NC(=O)CN(CCc2ccccc2)S(=O)(=O)c2ccc(NC(C)=O)cc2)cc(OC)c1OC
-10.2%	CC(=O)c1cccc(-c2ccc3c(=O)[nH]c(Nc4ccccc4)cc3c2)c1
13.7%	CC1CCCC(C)N1C(=O)COC(=O)CNC(=O)c1ccccc1F (stereo not drawn)
-7.3%	CN(C)S(=O)(=O)c1cc(NC(=O)COC(=O)CC2CC3CCC2C3)ccc1Cl (stereo not drawn)
15.1%	O=C(NCC(c1ccco1)S(=O)(=O)c1cccs1)c1ccccc1F (stereo not drawn)
10.8%	CC(C=Cc1ccccc1)=NNS(=O)(=O)c1ccc([N+](=O)[O-])cc1
-15.7%	C/C=C/C(=O)[C@@H](C)[C@@H](/C=C/C[Si](C)(C)C)c1ccccc1
7.0%	O=C(CNC(=O)c1ccc(Br)o1)NNC(=O)COc1ccccc1Cl
-11.3%	C=C1C(=O)O[C@H]2[C@H]1[C@@H](O)CC(=C)[C@@H]1CC(=O)[C@@H](C)[C@H]21
5.4%&-7.8%	O=C(Nc1cccs1)Nc1ccc(F)cc1F
-4.1%	O=C(COC(=O)c1ncc(Cl)c(Cl)c1Cl)NCc1cccs1
-22.6%	O=S(=O)(c1ccc(F)cc1)N1CCc2ccccc2C1
-8.2%	CCn1nnnc1SCC(=O)Nc1nc2ccc(OC)cc2s1

More entries:
VDR inh	Structure
8.6%	Nc1ccc2c(c1)C(=O)c1ccc(Cl)cc1-2
-11.0%	Cc1c(O)ccc2c3c(c(=O)oc12)CCCC3
13.6%	O=C(Nc1cccnc1Cl)c1ccc(=O)oc1
2.1%	COCCN1CCN(C(=O)c2cc(COc3ccc(F)cc3F)on2)CC1
11.3%	Cc1ccc(OC(C)C(=O)N/N=C/c2ccccn2)cc1 (stereo not drawn)
-12.6%	Cc1c(C(=O)NCc2ccoc2)oc2ccc3c(c12)C(=O)CC(C)(C)O3
-2.9%	COc1ccccc1C(=O)N1CCN(Cc2ccc3c(c2)OCO3)CC1
-5.0%	Cc1cccc(OCc2nnc(SCCC(=O)O)n2-c2ccccc2)c1
-3.3%	CC(=O)Nc1ccc(S(=O)(=O)NCC(=O)OCC(=O)N2CCc3ccccc32)cc1
-15.8%&0.7%	CCOC(=O)Cn1nc(C)c(NC(=O)COc2ccc(OC)cc2)c1C
-5.7%	O=C(NNS(=O)(=O)c1ccc(Cl)cc1)c1cccc(S(=O)(=O)N2CCOCC2)c1
8.5%	CC(C)NC(=O)Nc1cccs1
6.1%	Cc1ccc(CNC(=O)Cn2c(=O)n(Cc3ccc(F)cc3)c(=O)c3sc4ccccc4c32)cc1
-9.1%	O=C(COc1ccc(S(=O)(=O)N2CCCC2)cc1Cl)NCc1ccc2c(c1)OCO2
10.0%	O=C(N/N=C/c1c[nH]c2ccccc12)c1cccc([N+](=O)[O-])c1

(continued)
VDR inh	Structure
13.0%	c1ccc(N2CCN(c3ncnc4c3nc3n4CCCCC3)CC2)cc1
8.3%	Cc1cccc(C(=O)Nc2ccc(S(=O)(=O)N3CCCCC3c3cccnc3)cc2)c1 (stereo not drawn)
3.4%	O=C(NCC(c1ccco1)N1CCc2ccccc21)c1ccccc1Cl (stereo not drawn)
-4.6%	CC(=O)Nc1c(Cl)cc2c(c1Cl)Cc1cc(N)ccc1-2
-1.6%	COc1ccc(CCNC(=O)CCc2ccccc2O)cc1OC
4.5%	O=C(O)c1cccc(S(=O)(=O)Nc2ccccc2Cl)c1
3.0%	CCOC(=O)N1CCC(NS(=O)(=O)c2ccc(C)cc2)CC1
9.5%	O=C(O)c1ccnc(C(=O)O)c1
-2.4%	COc1ccc2cc(CCNC(=O)c3cccc([N+](=O)[O-])c3)c(=O)[nH]c2c1
2.5%	CC(CNC(=O)c1csc2c1CCCCC2)c1ccccc1 (stereo not drawn)
10.5%	Nc1c(Cl)cc(-c2[nH]c3cc(C(=O)NCCO)ccc3c(=O)c2O)cc1Cl
-22.1%	COc1ccc(/C(N)=N/OC(=O)CC2CCCCC2)cc1
-13.0%	CCn1nc(NS(=O)(=O)c2ccc(NC(C)=O)cc2)c2cc3cc(C)ccc3nc21
22.5%	COc1cc(NC(=O)c2ccc3c(c2)OCCO3)ccc1NC(=O)c1ccco1
-24.1%	Cc1cccc(NC(=O)C2NC(=O)CC2c2ccccc2)c1C (stereo not drawn)

Some of these compounds in order of SMILES length, descending:
VDR inh	Structure
10.5%	Nc1c(Cl)cc(-c2[nH]c3cc(C(=O)NCCO)ccc3c(=O)c2O)cc1Cl
3.0%	CCOC(=O)N1CCC(NS(=O)(=O)c2ccc(C)cc2)CC1
4.5%	O=C(O)c1cccc(S(=O)(=O)Nc2ccccc2Cl)c1

More records.
VDR inh	Structure
-6.7%	Cc1c(Cl)cccc1NC(=O)c1nc(C)n(-c2cc(OC(C)C)c(Cl)cc2Cl)n1
-1.6%	CCN(CC)CCNC(=O)c1sc2ncn(CC(=O)Nc3ccc(C)c(Cl)c3)c(=O)c2c1C
12.8%	O=S(=O)(CC(O)CS(=O)(=O)c1ccc(Cl)cc1)c1ccccc1 (stereo not drawn)
-0.2%	Cc1ccc(NC(=O)CSc2nc(-c3ccco3)nc3cc(=O)[nH]n23)cc1
-3.3%	CN(C)CCNc1ncnc2c1sc1nc(-c3ccccc3)c3c(c12)CCCC3
-12.7%	COc1cc2[nH]c(C(=O)NCC3CCCO3)cc2c(OC)c1OC (stereo not drawn)
11.9%	Cc1ccc(C(c2sc3nc(-c4ccco4)nn3c2O)N2CCC3(CC2)OCCO3)cc1 (stereo not drawn)
-5.8%	CCOc1ccc2nc(N3C(=O)CNC3=S)sc2c1
-19.4%	COc1ccc(C2=NN(C(=O)CSc3nnc(-c4ccccc4F)o3)C(c3ccco3)C2)cc1 (stereo not drawn)
-15.4%	COc1ccc(Nc2nnc(SCC3CCCO3)s2)cc1 (stereo not drawn)
-16.5%	CC(=O)c1cccc(NC(=O)COC(=O)c2ccccn2)c1
-19.4%	Clc1ccccc1CNc1nc2ccccc2c2nc(-c3ccccc3)nn12
15.1%	COc1ccc(Cn2c(=O)n(Cc3ccco3)c(=N)c3c4c(sc32)COC(C)(C)C4)cc1
?	COc1ccc(OC)c(C(=O)/C=C/c2ccccc2C(F)(F)F)c1
?	O=C(CCCN1C(=O)/C(=C/c2ccccc2)SC1=S)Nc1ccc(C(=O)O)c(O)c1

Other compounds follow:
VDR inh	Structure
-7.4%	COc1ccc(-c2nc(S(=O)(=O)c3ccccc3)c(N3CCC(C)CC3)o2)cc1
-16.9%	COc1ccccc1NS(=O)(=O)c1cc(NC(=O)COc2ccccc2)ccc1N1CCOCC1
6.5%	COC(=O)c1cc(C(=O)OCC(=O)NNC(=O)c2cccs2)cc([N+](=O)[O-])c1
-7.6%	O=S(=O)(c1ccc(Cl)cc1)N1CCCC1c1nc(-c2cccc(Cl)c2)no1 (stereo not drawn)
1.6%	CCCN(CCC)C(=O)CCSCCC(=O)N(CCC)CCC
-13.6%	Oc1ccc[n+](/C=C\c2ccccc2)c1
2.4%	O=C1CNC(=S)N1CCc1ccc(Cl)cc1
10.7%	O=C(Nc1cccc(F)c1)N1CCCC(CNS(=O)(=O)Cc2ccccc2)C1 (stereo not drawn)
3.1%	COc1ccc(C(=O)Nc2ccc3oc(-c4ccc(F)cc4Cl)nc3c2)cc1
-10.9%	CCOc1ccc(NC(=O)/C=C/c2ccccc2)c([N+](=O)[O-])c1
?	O=C(/C=C/c1ccc(N2CCOCC2)cc1)c1ccccc1
-28.3%	NS(=O)(=O)c1ccc(NC(=O)c2ccc(CNS(=O)(=O)c3cc(C(F)(F)F)ccc3Cl)cc2)cc1
-13.6%	Cc1ccc(-n2c(=O)cc(N3CCC(C)CC3)[nH]c2=O)cc1
38.0%[activator]	CCn1cc(C(=O)N[C@H](C(=O)NCCO)C(C)C)c(=O)c2cc3c(cc21)OCO3
3.5%	COc1ccc(C2C(C(=O)c3ccc(C)o3)=C(O)C(=O)N2Cc2ccco2)cc1OC (stereo not drawn)

New compounds follow.
VDR inh	Structure
28.3%	c1ccc(Oc2nc3ccccc3n3cccc23)cc1
-4.3%	CC(=O)c1cccc(NC(=O)/C(=C/c2ccco2)NC(=O)c2ccco2)c1
9.8%	Cc1ccccc1Cn1c(=O)n(CCCCC(=O)NCCc2ccccc2)c(=O)c2ccccc21
-12.0%	CCOC(=O)NC(NS(=O)(=O)c1ccccc1)(C(=O)OCC)C(F)(F)F (stereo not drawn)
11.4%	O=C(NC1CCCCCC1)C1c2ccccc2C(=O)N1Cc1cccs1 (stereo not drawn)
9.5%	CC1CN(C(=O)CSc2nnc(-c3ccccc3)o2)CC(C)O1 (stereo not drawn)
-27.3%	Cc1nn(CCS(=O)(=O)c2ccc(Cl)cc2)c(C)c1Br
-1.6%	O=[N+]([O-])c1ccc(-c2nc(C(Cl)Cl)c3ccccc3n2)cc1
?	CC(C(=O)Nc1ccccc1-c1ccccc1)N1CCN(Cc2ccccc2)CC1 (stereo not drawn)
8.4%	CCN(CC)S(=O)(=O)c1cccc(-c2nn(-c3ccccc3)cc2/C=C(\C#N)C(=O)NCc2ccco2)c1
-1.6%	COc1ccccc1NC(=O)C1CCN(C(=O)NCc2ccccc2)CC1
-13.3%	Cc1ccc(NC2=C(Cl)C(=O)OC2OC(C)C)cc1 (stereo not drawn)
8.2%	COC(=O)[C@H](Cc1ccccc1)NC(=O)N1CCN(c2ccc(F)cc2)CC1
-3.9%	O=C(OCc1nnc(-c2ccccc2)o1)c1cccc(S(=O)(=O)N2CCOCC2)c1
-5.5%	COc1ccccc1C(=O)NC(=O)OCCn1c(C)cnc1[N+](=O)[O-]
10.3%	OCC1(CC2CCCCO2)CCN(Cc2nc3ccccc3[nH]2)CC1 (stereo not drawn)

Bioassay records deposited in PubChem BioAssay by National Center for Advancing Translational Sciences (NCATS).

Not all compounds are listed; rates above refer to the full screens.
